Env fusion inh: blocks HIV Env-driven cell-cell fusion; HeLa-JRFL Env/CEM21 cell fusion, luciferase; inhibition, % at 12.3 µM; hit rate 1.1% among 360,000; AID 651610;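 active = mean replicate inhibition score of at least 50 and every replicate individually at or above 50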;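 also: 0% = plate neutral controls and 100% = maraviroc near 300 nM; one replicate is shown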
CSC inhib: cancer stem cell inhibition | inhibition, % at 7.5 µM | cancer stem cell-like cells viability, luminescence | AID 2717 | hit rate 1.1% among 300,000;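 active = mean at 75% or more and at least half the replicates too; tested in HMLE shEcad cells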;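 also: 0% = median of negative and 100% = median of positive control wells; the first replicate is given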
Yeast UUG start: modulators of start codon recognition fidelity in yeast | S. cerevisiae UUG-firefly luciferase reporter, luminescence/redox ratio | activity score, % at 18.7 µM | hit rate 0.13% among 350,000 | AID 602363;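 active = replicate mean at a twofold rise or more, about +100% in these data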;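 also: firefly luciferase made from a UUG start codon reports start codon fidelity; reporter light over untreated wells divided by growth signal over untreated wells; some hits fall short of that in this replicate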
eIF4H inh: inhibitors of RNA binding by human eIF4H | AID 2012 | inhibition, % at 35 µM | eIF4H fluorescence polarization binding assay | hit rate 0.94% among 290,000;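 active = 50% or more with normal probe brightness, or confirmed in later tests; about a fifth of its hits are not listed in these tables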;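 also: calls also rest on retests at 20 µM and on dose response follow-up; 0% = protein and probe with vehicle and 100% = probe without protein; strong numbers were not always called active; many hits fall short of the cut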
PABP FP inh: blocks human PABP binding to poly(A) RNA; P11940; fluorescence polarization; inhibition, % at 35 µM; hit rate 1% among 290,000; AID 2014;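 active = 50% or more with normal probe brightness, or confirmed in later tests; about a fifth of its hits are not listed in these tables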;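 also: calls also rest on retests at 20 µM and on dose response follow-up; controls were probe without protein and protein plus probe with vehicle; some compounds called inactive have numbers as strong as hits; many hits fall short of the cut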
MT1-MMP act inh: MT1-MMP (human) activation inhibition; hit rate 0.061% among 360,000; GFP/RFP ratio change, % at 20 µM; HT1080 RFP-PRO-GFP cells, GFP/RFP ratio fluorescence, overnight; percent of plate control window, DMSO zero;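 active = GFP/RFP ratio change of at least 30% with cell ATP level not reduced by more than half and red fluorescence within 50% of control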; also: strong numbers were not always called active
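Assay system: HT1080 cells carrying an RFP-PRO-GFP reporter | Dosing: Single dose of 20 µM compound, 1% DMSO final | Incubation: Cells overnight before dosing, compound overnight, 37 °C, 5% CO2 | Evaluation: GFP/RFP fluorescence ratio | Control set: DMSO and RFP-L50D-GFP cell wells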
Rce1 inh: yeast Ras-converting enzyme inhibition; calls only; yeast membranes, quenched prenylated peptide cleavage fluorescence; AID 2563; hit rate 0.27% among 290,000; Q03530;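 active = fall in fluorescence gain of 50% or more versus controls, with final raw signal at or below 3038400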;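 also: plate controls were neutral control wells for no effect and wells lacking membranes for full effect; tested at 10 µM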
Target sequence (Q03530 whole entry, looked up): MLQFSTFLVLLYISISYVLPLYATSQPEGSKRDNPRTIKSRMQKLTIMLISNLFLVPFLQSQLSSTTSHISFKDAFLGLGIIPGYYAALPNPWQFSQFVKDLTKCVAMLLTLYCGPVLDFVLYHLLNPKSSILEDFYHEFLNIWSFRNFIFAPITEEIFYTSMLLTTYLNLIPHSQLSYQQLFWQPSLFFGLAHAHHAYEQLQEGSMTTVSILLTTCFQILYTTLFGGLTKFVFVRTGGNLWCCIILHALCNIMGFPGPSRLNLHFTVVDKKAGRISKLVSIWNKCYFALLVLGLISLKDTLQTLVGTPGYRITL
eIF4H inh retest: second read-out of eIF4H inh, no call of its own (marks repeat the call); inhibition, %; compound at 20 µM; confirmation average;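 mean of two retest wells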
PABP FP inh retest: also measured in PABP FP inh; calls as there; inhibition, %; compound at 20 µM; confirmation repeats;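 mean of two retest wells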
MT1-MMP act inh RFP: further read-out of MT1-MMP act inh, marked with its call; RFP signal change, %; measured here: RFP expression control read;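 0 = vehicle wells; hits needed this value within 50% of zero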
Numbers without * were called inactive; i = inactive; . = no result given; & = joins results of further samples; [ ] = remark or other dose. A portion of the library; rates above refer to the full screens.

Sample of the layout, three compounds:
SMILES	Env fusion inh	CSC inhib	Yeast UUG start	eIF4H inh	PABP FP inh	MT1-MMP act inh	MT1-MMP act inh RFP	Rce1 inh	others
Cc1ccc(/C=N/NC(=O)CNC(=O)c2ccc(S(=O)(=O)N3CCCC3)cc2)o1	6.7	-10.9	.	-6.7	-2.8	-0.1	1.0	i
COc1ccccc1NC(=O)N1CCC(C(=O)c2ccc(F)cc2)CC1	6.6	-20.5	-2.5	-4.1	91.0	1.9	6.6	i	eIF4H inh retest=-3.6;PABP FP inh retest=-0.6
CCOc1ccc(C(C)NC(=S)NC2CCCCC2)cc1 (configuration not stated)	4.4	-8.3	-33.0	5.8	-3.5	2.6	-7.8	i

All compounds of this part, previewed entries included:
SMILES	Env fusion inh	CSC inhib	Yeast UUG start	eIF4H inh	PABP FP inh	MT1-MMP act inh	MT1-MMP act inh RFP	Rce1 inh	others
Cc1ccc(/C=N/NC(=O)CNC(=O)c2ccc(S(=O)(=O)N3CCCC3)cc2)o1	6.7	-10.9	.	-6.7	-2.8	-0.1	1.0	i
COc1ccccc1NC(=O)N1CCC(C(=O)c2ccc(F)cc2)CC1	6.6	-20.5	-2.5	-4.1	91.0	1.9	6.6	i	eIF4H inh retest=-3.6;PABP FP inh retest=-0.6
CCOc1ccc(C(C)NC(=S)NC2CCCCC2)cc1 (configuration not stated)	4.4	-8.3	-33.0	5.8	-3.5	2.6	-7.8	i
COc1ccc(OC(C)C(=O)N(C)Cc2nc(-c3ccc(C)cc3)no2)cc1 (configuration not stated)	7.3	7.9	-7.5	-3.3	6.7	-1.4	-11.6	i
Cc1ccc(C)n1-c1sc2c(c1C(=O)O)CCCC2	11.9	8.0	.	96.5	13.7	-1.2	13.4	.	eIF4H inh retest=-3.5;PABP FP inh retest=2.4
Cc1ccc(S(=O)(=O)N2[C@@H](c3cccc(Cl)c3)C(C(=O)O)=CC[C@H]2c2cccc(Cl)c2)cc1	9.7	7.1	-18.8	.	.	-0.8	5.0	.
NC(=O)N/N=C1\CCS(=O)(=O)c2ccc(F)cc21	-0.3	-10.0	-17.7	-7.8	-15.8	5.8	3.6	i
O=[N+]([O-])c1ccc(Nc2ccc(F)cc2)cc1	4.1	4.2	-17.1	6.7	-5.7	-2.1	-4.1	i
COc1cccc(OC)c1C(=O)NN1CCCCC1	.	.	4.4	7.2	6.5	4.3	3.5	i
CCO[C@H]1OC(C(=O)NCc2ccccc2)=C[C@@H](c2cn(C(C)=O)c3ccccc23)[C@@H]1CCCO	9.6[16.7 µM]	4.1	-6.1&-11.5	-3.9	-3.6	-2.2	-4.6	i
O=C1CN(C(=O)c2cc([N+](=O)[O-])ccc2Cl)C(c2ccc(F)cc2)c2cc(F)ccc2N1 (configuration not stated)	-40.9	-9.8	-32.9	1.9	-4.0	-0.9	-2.9	i
CC(C)CCNC(=O)C1CCCN(S(=O)(=O)c2ccc(-n3cnnn3)cc2)C1 (configuration not stated)	1.0	.	-13.6	0.4	-3.8	5.6	1.5	i
S=C(Nc1ccc2nc(-c3ccccn3)c(-c3ccccn3)nc2c1)N1CCOCC1	-23.0	-12.0	.	34.5	43.7	-18.0	3.2	i
O=C(O)CCC(=O)N1CCc2cc(S(=O)(=O)N(CCc3ccccc3)Cc3ccccc3)ccc21	.	0.7	-13.2	-1.8	2.0	1.2	-2.4	i
COCCOC(=O)c1[nH]c2c(c1C)C(=O)C(C(=O)OC)C(C)C2 (configuration not stated)	-83.7	11.6	-18.2	-11.3	1.2	-1.1	-0.4	i
CCc1nc(N2CCCCC2)c2oc3ccccc3c2n1	69.1*	34.9	.	3.1	9.8	-3.4	-4.6	i
COc1ccc(CCNC(=O)Cc2ccccc2)cc1OC	-0.7	-10.8	-11.8	-0.3	3.1	5.3	1.6	i
Clc1ccc(OCc2nc(-c3ccccn3)n[nH]2)cc1	28.5	33.5	-18.0	25.9	7.5	6.4	1.6	i
Cc1cccc(C)c1NC(=O)CN(C)C(=O)CSC(=S)N1CCCC1	2.4	4.3	.	.	.	0.4	0.7	i
COc1ccc(CCn2nnnc2C(c2ccccc2)N2CCN(C)CC2)cc1OC (configuration not stated)	.	-3.6	-15.3	0.1	21.9	-4.5	-3.9	i
CCCCOc1ccc(C2(C(=O)O)CCCC2)cc1	.	-4.0	3.8	4.2	-5.1	-2.8	-3.1	i
c1ccc(SCc2nc(-c3ccncc3)no2)cc1	.	-4.9	-9.9	-2.4	10.4	3.9	-1.2	i
C/C(=N\O)C(C)(C)Nc1ccccc1F	8.0	-8.4	.	5.1	2.0	3.5	4.8	i
O=C(c1ccc(F)cc1F)C1CCN(c2ccc([N+](=O)[O-])cn2)CC1	14.5	1.4	-16.1	-5.4	-8.1	1.7	-26.9	i
Cc1ccc(S(=O)(=O)N(C)C[C@@H]2OCCCC[C@@H](C)Oc3ccc(NS(=O)(=O)c4c(C)noc4C)cc3C(=O)N([C@H](C)CO)C[C@@H]2C)cc1	-30.1	.	5.5&32.4	.	.	-27.2	-23.9	.
COc1ccc(Br)cc1CNC(=O)C1CCCN(S(=O)(=O)N2CCC(C)CC2)C1 (configuration not stated)	9.7	.	-20.8	.	.	-11.5	-16.8	.
CC(=O)n1cc(N(C(=O)CCl)c2ccc([N+](=O)[O-])cc2)c2ccccc21	-36.9	40.8	-19.2	-2.9	9.1	-4.6	-7.8	i
O=C(NCC1CCCO1)c1sc2cc(Cl)ccc2c1Cl (configuration not stated)	-109.2	.	.	-5.8	-14.8	3.0	4.0	i
COc1ccc(Cc2nnc(SCC(=O)Nc3ccccc3)[nH]c2=O)cc1	39.1	15.3	-10.6	.	.	2.6	2.0	i
O=C(COc1ccc(Br)cc1)N(Cc1ccco1)C1CCS(=O)(=O)C1 (configuration not stated)	-4.3	-5.1	-3.0	-9.3	-3.0	-0.8	-0.9	i
CCCCOc1ccc(C(=O)NCC(=O)NCC(c2ccc(OC)cc2)N2CCOCC2)cc1 (configuration not stated)	-6.5	10.9	4.6	.	.	1.6	-3.9	.
CCOC(=O)c1ccc(NC(=O)C2C3CCC(C3)C2C(=O)O)cc1 (configuration not stated)	.	.	-18.2	-2.7	-4.4	-2.9	-1.8	i
O=C(C1CCCCC1)N1CCCn2c1nc1ccccc12	.	.	-8.4	-1.8	1.2	-1.5	3.3	i
Cc1cc(NS(=O)(=O)c2ccc(NC(=O)c3ccco3)cc2)no1	.	2.5	-6.5	2.4	5.2	-0.1	1.4	i
CCN1C(=O)C(CC(=O)Nc2ccccc2)S/C1=N\c1ccccn1 (configuration not stated)	7.7	-8.5	.	-6.7	-3.2	-0.3	-0.1	i
O=C1CCC([N+](=O)[O-])C(c2cccc(Cl)c2Cl)N1 (configuration not stated)	.	-4.4	-17.6	5.6	-3.7	-4.8	1.5	i
O=C(CSc1nnc(-c2ccc(S(=O)(=O)N3CCCC3)cc2)o1)NCc1ccco1	-4.2	.	-10.6	32.8	5.1	3.3	1.7	i
COc1cc(NC(=O)COC(=O)c2[nH]c(C)c(C(C)=O)c2C)cc(OC)c1	17.8	-1.0	-19.1	.	.	-2.2	-26.0	.
N#Cc1nc(Cc2ccccc2)oc1NCCCn1ccnc1	.	-18.0	20.9	-8.0	-6.4	21.3	-3.4	i
CC1(C)CC(=O)C(CC(=O)NC2CCCc3ccccc32)C(=O)C1 (configuration not stated)	28.2	-4.6	.	6.5	3.9	-0.2	7.5	i
O=C(O)c1ccccc1-c1ccccc1C(=O)Nc1ccc2c(c1)C(=O)c1ccccc1-2	18.5	.	-2.5	.	.	-4.7	3.5	.
Cc1ccc(C2=NOC(C)(c3nnc(-c4ccc(F)cc4)o3)C2)cc1 (configuration not stated)	-32.4	-2.4	-8.8	-0.9	7.6	0.2	0.3	i
CC1Cc2ccccc2N1C(=O)CSc1nnnn1-c1ccc2c(c1)OCCO2 (configuration not stated)	.	-3.5	.	7.0	-0.1	5.1	-5.4	i
N#Cc1ccc(/C=N/NC(=O)c2cccc(S(=O)(=O)N3CCOCC3)c2)cc1	-12.7	-17.0	.	-1.2	-12.0	-2.6	-2.4	i
CCCCN(C(=O)CSc1nncn1-c1ccccc1)c1c(N)n(Cc2ccccc2)c(=O)[nH]c1=O	-19.6	1.9	.	7.3	13.8	0.0	3.8	i
COC(=O)c1cc(S(=O)(=O)NCC2CCN(Cc3cccc(Cl)c3)CC2)c[nH]1	-8.5	-13.5	0.0	-4.8	7.5	-1.9	1.0	i
O=C(Nc1nnc(C2CC2)s1)c1cccnc1Oc1ccc(Cl)cc1	13.2	-4.1	-21.2	-1.7	-7.5	1.0	-0.6	i
CN(C)/C=C/C(=O)c1ccc(OCCN(C)c2ccccn2)cc1	0.6	-8.3	6.5	0.0	-2.5	1.2	-2.4	i
O=C(COc1ccc(-c2ccccc2)cc1)N/N=C/c1ccccc1Br	-26.2	30.6	-16.0	5.8	-2.7	2.0	1.5	i
Cc1ccc(C)c(S(=O)(=O)NCc2ccc(C(=O)N3CCC(Cc4ccccc4)CC3)cc2)c1	23.5	37.2	.	79.0	2.1	25.9	-4.6	i	eIF4H inh retest=-9.1;PABP FP inh retest=4.2
CC(=O)Nc1ccc(S(=O)(=O)N(C)Cc2ccccc2)cc1	-4.3	-1.8	.	-6.0	-8.2	2.2	3.7	i
COc1ccc(OC)c(C2(O)CSC(=Nc3cccnc3)N2Cc2ccco2)c1 (configuration not stated)	21.6	-5.5	-9.3	-5.9	3.4	-0.6	-0.8	i
C/C(CC(=O)Nc1cc(C)ccn1)=N\NC(=O)c1cccc(C)c1O	49.9	72.8	-43.9	11.2	14.5	-9.3	-3.2	i
CC1CCN(C(=O)CNC(=O)c2ccc(Br)o2)CC1	-21.4	-23.6	-25.2	.	.	2.3	-0.4	.
Cc1cc(-c2ccccc2)nc(N(C)N)c1S(C)(=O)=O	-6.5	-12.2	.	-4.9	5.5	-1.1	-1.3	i
Cc1nc(-c2ccc(NC(=O)c3ccccc3)cc2)cs1	-91.9	24.0	-39.1	-11.3	0.4	3.7	-13.7	i
COc1ccc(-n2c(COc3ccccc3)n[nH]c2=S)cc1	-5.9	-14.2	-24.0	-0.4	-1.2	-3.3	-1.9	i
COc1cc2c(cc1NC(=S)NC(=O)/C=C/c1ccco1)oc1ccccc12	-23.1	13.6	.	75.9	-15.9	1.6	6.3	i	eIF4H inh retest=-8.3;PABP FP inh retest=3.2
Cc1ccccc1NS(=O)(=O)c1ccc(C(=O)NCCCN2CCCC2=O)cc1	-1.0	-8.4	.	.	.	-3.0	-1.9	i
O=c1[nH]c(CSc2nnc3ccccn23)nc2ccccc12	-35.9	4.1	.	4.8	3.9	-2.4	1.8	i
(next part)
SMILES	Env fusion inh	CSC inhib	Yeast UUG start	eIF4H inh	PABP FP inh	MT1-MMP act inh	MT1-MMP act inh RFP	Rce1 inh	others
N#C/C(=C\c1cn(Cc2ccccc2C#N)c2ccccc12)C(=O)NCc1cccs1	-8.9	4.8	.	-3.8	-5.0	.	.	i
Cc1cccc(NC(=O)CCC(=O)OCc2ccc(Br)cc2)c1	-21.5	16.1	.	7.8	2.0	1.2	4.5	i
CCN(CC(=O)NC)S(=O)(=O)c1ccc(C)cc1	.	-5.8	-17.2	6.2	-8.7	-4.6	4.0	i
CC(C)c1nc2cc(C(=O)NC(c3cccnc3)C(F)(F)F)ccc2o1 (configuration not stated)	-1.4	-8.6	-14.5	-1.2	-0.9	1.3	-4.2	i
COc1ccc(C(=O)N[C@H](C(=O)NCCCn2nc(C)cc2C)C(C)C)cc1	.	-25.8	-13.4	.	.	-3.7	0.0	.
CS(=O)(=O)N(CC(=O)NC1CCCC1)c1cccc(F)c1	-7.3	2.2	-11.2	-2.6	-1.7	11.8	-1.6	i

Screens from PubChem.
